# Source: PubChem (National Center for Advancing Translational Sciences (NCATS))
# VDR inhibitor: vitamin D3 receptor (human) inhibition | hit rate 0.93% among 400,000 | VDR-SRC2-3 peptide fluorescence polarization, 2 h | Potency, µM, for the others: max response, negative = inhibition, usual class: inhibitors; active = well fitted inhibition curve with a large enough effect; inconclusive = small, poorly fitted or top-dose-only effect, or another doubt; inactive = no such curve, though single readings can be large or run the other way; note: series mostly up to about 120 µM
# Target sequence (P11473 whole entry, looked up): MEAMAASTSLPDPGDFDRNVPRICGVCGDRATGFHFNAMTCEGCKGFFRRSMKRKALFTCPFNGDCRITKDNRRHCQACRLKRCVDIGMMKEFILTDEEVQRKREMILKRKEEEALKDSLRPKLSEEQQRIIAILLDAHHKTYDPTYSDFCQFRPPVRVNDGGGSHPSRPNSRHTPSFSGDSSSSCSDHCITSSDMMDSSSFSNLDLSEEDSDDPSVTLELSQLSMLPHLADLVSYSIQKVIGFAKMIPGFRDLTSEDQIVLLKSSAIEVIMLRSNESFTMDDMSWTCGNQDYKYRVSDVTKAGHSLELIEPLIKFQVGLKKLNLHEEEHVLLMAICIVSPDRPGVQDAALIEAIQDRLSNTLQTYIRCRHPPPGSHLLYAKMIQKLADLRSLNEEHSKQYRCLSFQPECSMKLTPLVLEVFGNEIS
#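 Fluorescence polarization assay of small-molecule disruption of VDR binding to coregulator peptide SRC2-3. Compounds and controls pin-transferred, then read after 2 h incubation at ambient room temperature.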
# * = called active by the depositor; ? = inconclusive; [ ] = another dose, or the depositor's remark. % is set by controls: 0 for no effect and ±100 for the full control effect; potency is the fitted concentration of half-maximal effect. Only part of the results is shown (hit frequency here may not be typical).
SMILES,VDR inhibitor
CCC(NC(=O)Nc1ncccc1C)(C(F)(F)F)C(F)(F)F,7%
Cc1ccc(C(=O)Nc2ccccc2C(=O)N2CCOCC2)cc1[N+](=O)[O-],0%
CCOC(=O)C1C(C(=O)OCC)C1(c1ccccc1)c1ccccc1 (configuration not stated),10%
Cc1nc2ccccc2nc1OCC(=O)N1CCN(c2ccccc2)CC1,-17%
CCC(C(=O)N1CCN(c2ncccn2)CC1)c1ccccc1 (configuration not stated),-26%
CSc1ccccc1NC(=O)CN(C)C(=O)C(C)SCc1nc2sc(C)c(C)c2c(=O)[nH]1 (configuration not stated),-9%
Cc1occc1C(=O)Nc1cccc([N+](=O)[O-])c1,22µM*
Fc1ccc(-c2nc3n(n2)Cc2ccccc2-3)cc1,0%
CCOc1ccc(-c2nnc(SCC(=O)NCc3ccccc3Cl)o2)cc1,15%
O=C(CSc1ccccn1)Nc1nncs1,-9%
CCc1cccc(CC)c1NC(=O)/C(C#N)=C/c1ccccc1C(F)(F)F,50µM*
COCCOc1ccc(C(F)(F)F)cc1NC(=O)c1ccc(C(F)(F)F)cc1,6%
CN(C)c1nc(N)nc(CSc2nnnn2-c2ccc(C(=O)O)cc2)n1,8%
O=C1[C@H]2[C@@H](c3ccc(F)cc3)N3C(=O)N(c4ccc(Br)cc4)C(=O)[C@@]3(Cc3ccc(Cl)cc3)[C@H]2C(=O)N1C1CCCCC1,?
Cc1ccc(C(=O)C2=C(O)C(=O)N(CC3CCCO3)C2c2ccccc2F)o1 (configuration not stated),-4%
Cc1cc(N/C=C\c2nnnn2-c2ccc(F)cc2)no1,-1%
CCOC(=O)c1ccccc1NC(=O)Nc1cc2c(cc1N1CCCCC1)n(C)c(=O)n2C,-14%
CN(C)Cc1c(-c2ccc(Cl)cc2)nc2ccccn12,9%
c1ccc(Cn2nnnc2C(c2cccnc2)N2CCN(c3ccccc3)CC2)cc1 (configuration not stated),1%
Cc1ccc(CCN2CCN=C2Nc2ccccc2)cc1,-5%
CSc1c(SCc2ccccc2)cnn(Cc2ccccc2)c1=O,-17%
CCOc1[nH]n(-c2ccccc2)c(=O)c1C=Nc1ccccc1,9%
O=c1cc(-c2ccccc2)nc(SCc2ccccc2)[nH]1,8%
CCCCN(C(=O)C1CSC2(C)CCC(=O)N12)c1c(N)n(CC(C)C)c(=O)[nH]c1=O (configuration not stated),-6%
O=C(O)CC/C=C\CC[C@@H]1[C@@H](N2CCCCC2)[C@@H](O)C[C@@H]1OCc1ccc(-c2ccccc2)cc1,-1%

# Filtered by structure: those above with a CF3 group (3)
SMILES,VDR inhibitor
CCC(NC(=O)Nc1ncccc1C)(C(F)(F)F)C(F)(F)F,7%
CCc1cccc(CC)c1NC(=O)/C(C#N)=C/c1ccccc1C(F)(F)F,50µM*
COCCOc1ccc(C(F)(F)F)cc1NC(=O)c1ccc(C(F)(F)F)cc1,6%

# 4 entries from above, with values ahead of the structure.
VDR inhibitor,Structure
-17%,CSc1c(SCc2ccccc2)cnn(Cc2ccccc2)c1=O
6%,COCCOc1ccc(C(F)(F)F)cc1NC(=O)c1ccc(C(F)(F)F)cc1
0%,Cc1ccc(C(=O)Nc2ccccc2C(=O)N2CCOCC2)cc1[N+](=O)[O-]
-9%,CSc1ccccc1NC(=O)CN(C)C(=O)C(C)SCc1nc2sc(C)c(C)c2c(=O)[nH]1 (configuration not stated)

# Back to the main list with the 3 entries that preceded the break.
SMILES,VDR inhibitor
O=c1cc(-c2ccccc2)nc(SCc2ccccc2)[nH]1,8%
CCCCN(C(=O)C1CSC2(C)CCC(=O)N12)c1c(N)n(CC(C)C)c(=O)[nH]c1=O (configuration not stated),-6%
O=C(O)CC/C=C\CC[C@@H]1[C@@H](N2CCCCC2)[C@@H](O)C[C@@H]1OCc1ccc(-c2ccccc2)cc1,-1%
C/C(=N\NC(=O)c1nnn(-c2nonc2N)c1-c1cccs1)c1ccncc1,-12%
O=C(Cn1c(=O)n(CCCS(=O)(=O)C2CCCCC2)c(=O)c2ccccc21)Nc1ccccc1F,22%
Cn1nc(-c2ccccc2)c(N2CCCCC2)cc1=O,14%
O=C(CN(Cc1ccccc1)S(=O)(=O)c1ccc(F)cc1)NCc1ccccn1,-4%
O=C(/C=C/c1ccco1)Oc1ccc(C(=S)N2CCOCC2)cc1,?
Cc1cc(C)c(NC(=O)CNC(=O)c2ccc3c(=O)n4c(nc3c2)CCC4)c(C)c1,-13%
O=C(Nc1ccc(Cc2ccncc2)cc1)C1CCC(N2C(=O)C3C4C=CC(C5CC45)C3C2=O)CC1 (configuration not stated),4%
O=C(C1CCC(CNS(=O)(=O)c2ccc(Br)s2)CC1)N1CCN(c2ccccc2Cl)CC1 (configuration not stated),-20%
CC1CCCCC1NC(=O)COC(=O)c1cc(=O)c2ccccc2o1 (configuration not stated),-15%
CC(C)(C)OC(=O)N1CCC[C@H]1c1nnc(SCc2cccc(Cl)c2)o1,-20%
COc1ccc(-n2c(C)c([N+](=O)[O-])c3ccc(O)c(CN4CCCCC4)c32)cc1,-12%
COC(=O)[C@@H](NCc1cccc(CN([C@H](C(=O)OC)C(C)C)S(C)(=O)=O)c1)C(C)C,7%
Cc1cc(C)c2nc(C(F)(F)F)nc(NCCCN3CCOCC3)c2c1,8%
COc1cc(C(=O)OCC2CC(c3ccccc3)=NO2)cc(OC)c1OC (configuration not stated),-1%
c1ccc(OCc2nn3c(-c4n[nH]c5c4CCC5)nnc3s2)cc1,10%
CC(=O)c1ccc(N(C(=O)c2csnn2)C(C(=O)NC(C)(C)C)c2cccs2)cc1 (configuration not stated),3%
O=C(O)c1cc(N2CCOCC2)nc2ccccc12,-2%
CCOc1ccc(-c2cc(CCCC(=O)NCCc3ccc(OCC)c(OCC)c3)no2)cc1,-1%
CCOc1ccc(OCC)c(NC(=O)c2ccc(CNc3c(N4CCCC4)c(=O)c3=O)cc2)c1,-15%
O=C(CN1CCCC1)OCCCc1ccccc1,2%
O=C1CCN(Cc2ccccc2)C=C1c1ccc(C(F)(F)F)cc1,5%
COc1cccc(CNC(=O)c2cc3c(s2)-c2c(C)cccc2OC3)c1,-2%
Clc1ccccc1-c1nc(N/N=C/c2cccnc2)c2ccccc2n1,14%
Clc1cccc(Nc2ncnc3c2nc2n3CCCCC2)c1,-5%
COc1ccc(N2CCN(C(=O)CCCCCn3c(=O)[nH]c4ccsc4c3=O)CC2)cc1,2%

# Entries above marked active in VDR inhibitor.
SMILES,VDR inhibitor
Cc1occc1C(=O)Nc1cccc([N+](=O)[O-])c1,22µM*
CCc1cccc(CC)c1NC(=O)/C(C#N)=C/c1ccccc1C(F)(F)F,50µM*

# (next part)
SMILES,VDR inhibitor
COc1ccccc1CN1CCCC(N2CCN(c3ccc(F)cc3)CC2)C1 (configuration not stated),10%
Cn1c(Cc2cccc3ccccc23)nnc1SCC(=O)N1CCN(c2ccccc2)CC1,-3%
CC1=C(C(=O)N2CCCC(N3CCN(c4ccccc4F)CC3)C2)OCCO1 (configuration not stated),-3%
O=S(=O)(NCc1ccccc1)c1ccc(Br)c2nsnc12,6%
Cc1cccc(CNc2ccc(C(CC(N)=O)NC(=O)Cc3cccc4ccccc34)cc2[N+](=O)[O-])c1 (configuration not stated),-6%
CN(C)c1ccc(-c2nn3c(-c4cccnc4)nnc3s2)cc1,0%
Cc1cc(C)c2nc(N3CCC(C(=O)N4CCN(c5ncccn5)CC4)CC3)sc2c1,8%
Cc1noc(C)c1COc1ccc(C(=O)OCC(=O)NCc2ccccc2Cl)cc1,-5%
O=c1oc2cc(Oc3ccc(C(F)(F)F)cc3[N+](=O)[O-])ccc2c2c1CCC2,?
Cc1ccc(OCCOCCn2ccnc2)c(Br)c1,1%
COCCN(C(=O)CN1CCc2ccccc21)c1c(N)n(Cc2ccccc2)c(=O)[nH]c1=O,-1%
CCOC(=O)c1nnc2c(Br)c(-c3ccccc3)nn2c1C,?
COc1ccc(NC(=O)c2ccc(S(=O)(=O)N3CCOCC3)cc2)c(OC)c1,3%
CC(C)Cn1c(=O)c2c(nc3n2CCCN3Cc2ccccc2)n(C)c1=O,-11%
COC(=O)c1cn(C(C)C(=O)NCc2ccco2)c2ccccc12 (configuration not stated),-1%
COC(=O)c1c(C)cc(OC)cc1O,11%
COc1cccc(CN2CCNC(=O)C2CC(=O)NCCc2nc(C)c(C)s2)c1OC (configuration not stated),?
Cc1cc(C)nc(N2CCCC(C(=O)NCCc3ccccc3F)C2)n1 (configuration not stated),1%
CC(C)Nc1ccc(C(CC(N)=O)NC(=O)Cc2ccc(Cl)cc2)cc1[N+](=O)[O-] (configuration not stated),3%
O=C(CNC1CCCCC1)NCC1(c2ccccc2)CCCC1,3%
Cc1cc(C(=O)CSc2cccc[n+]2[O-])c(C)n1-c1ccc(OC(F)F)cc1,-15%
CN(C)c1cc[n+](CC(=O)Nc2cccc([N+](=O)[O-])c2)cc1,4%
COc1ccc(NC(=O)c2cccnc2)c([N+](=O)[O-])c1,4%
CCn1cc(CN2CCCC(CNS(=O)(=O)c3ccc(OC)cc3)C2)cn1 (configuration not stated),-12%
Cc1cccc(NC(=O)CCN2C(=O)C3C4CCC(C4)C3C2=O)c1C (configuration not stated),-13%

# Following part
SMILES,VDR inhibitor
COc1cc(CNCCCN2CCOCC2)ccc1OCC(=O)Nc1cccc(C(F)(F)F)c1,-5%
COc1cccc(NC(=O)COC(=O)c2c(F)cccc2F)c1,-21%
CCN1C(=O)c2cccc3c(S(=O)(=O)N4CCC(C)CC4)ccc1c23,-25%
COC(=O)C(Cc1ccccc1)NC(=O)CNS(=O)(=O)c1ccc(Br)cc1 (configuration not stated),-7%
CCn1cc2nc(SCc3ccccc3Cl)n(CCc3ccccc3)c(=O)c2n1,5%
CCOC(=O)C1CCN(C(=O)c2cnn(-c3ccc(F)cc3)c2-n2cccc2)CC1,-13%
COc1ccc(CN(CCC(c2ccc(F)cc2)C2CCOC(C)(C)C2)C(=O)c2ccco2)cc1 (configuration not stated),-9%
Cc1ccc(S(=O)(=O)NCCCC(=O)C=[N+]=[N-])cc1,-15%
COc1ccc(-c2noc(CNC(=O)c3ccc4c(c3)OCO4)n2)cc1OC,10%
CS(=O)(=O)c1ccc(Cl)c(NC(=O)C2CCN(S(=O)(=O)c3cccs3)CC2)c1,-11%
O=C(c1ccc(Cl)cc1)N1CCC(=O)N(C(CO)Cc2ccccc2)CC1 (configuration not stated),0%
COc1ccc(C(=O)NCCNc2nc3cc(C)c(C)cc3cc2C)cc1,-20%
Cc1ccccc1NC(=O)c1cc(S(=O)(=O)N2CCOCC2)ccc1F,1%
CC[C@@]12C(=O)N(c3cccc(Br)c3)C(=O)N1[C@H](c1cccc(C)c1)[C@@H]1C(=O)N(Cc3ccccc3)C(=O)[C@@H]12,-14%
CSc1nnc(C(C)(C)C)c(=O)n1/N=C/c1ccccc1O,?
O=C(Cc1ccccc1)Nc1nnc2n1CCS2,1%
O=C(c1ccco1)N1N=C(c2ccc(Br)cc2)CC1c1ccco1 (configuration not stated),-7%
O=[N+]([O-])c1ccc(S(=O)(=O)Nc2ccc(S(=O)(=O)N3CCCC3)cc2)cc1,0%
Cc1ccc(-n2ncc(N(C)C)c(Cl)c2=O)cc1,-18%
O=C(c1cccc(-c2ccco2)c1)N1CCCC(N2CCN(c3ccc(F)cc3)CC2)C1 (configuration not stated),0%
CC(C)(C)CC(C)(C)c1ccc(OCOCCOCCO)c(Cc2cc(C(C)(C)CC(C)(C)C)cc(Cc3cc(C(C)(C)CC(C)(C)C)ccc3OCOCCOCCO)c2OCOCCOCCO)c1,-6%
Cc1ccc(NC(=O)c2cc(-c3cccs3)nc3ccccc23)nc1,4%
CC(=O)Nc1ccc2nc(CN3CCC(CO)(CCc4ccccc4)CC3)ccc2c1,10%
O=C(NCCc1ccccc1)c1c[nH]c2ccc(S(=O)(=O)Nc3ccc(F)cc3F)cc2c1=O,7%
CC(CN1C(C)CCCC1C)OC(=O)c1ccc(Cl)cc1Cl (configuration not stated),1%

# Other structures:
SMILES,VDR inhibitor
CN(C)CCCN(C(=O)c1cccs1)c1nc2cc3c(cc2s1)OCO3,4%
COC(=O)CCN(C(=O)c1ccc([N+](=O)[O-])cc1)c1ccccn1,-13%
Cc1ccc(NC(=O)Cn2c(-c3ccc(F)cc3)cnc2SCC(=O)Nc2c(C)cccc2C)cc1,-6%
CCOC(=O)C1=C(O)C(=O)N(Cc2ccc(C(C)(C)C)cc2)CC1,9%
COc1ccc2c(COC(=O)c3cccc(S(=O)(=O)NCC(C)C)c3)cc(=O)oc2c1,47%[activator]
CSc1ccccc1OCc1cc(C(=O)N2CCNC(=O)C2)no1,-20%
COc1ccc(/C=C(\C#N)c2nc(-c3ccc(Cl)c(Cl)c3)cs2)cc1OC,-7%
O=c1c(CCc2ccccc2)nc2cnc(N3CCOCC3)nc2n1-c1ccccc1,-8%
COCCCNCC(=O)c1c(N)n(Cc2ccccc2)c(=O)n(C)c1=O,-7%
N#Cc1ccccc1-c1ccc2ncnc(N3CCNCC3)c2c1,2%
O=C(NCC(c1ccco1)N1CCc2ccccc21)c1cccc([N+](=O)[O-])c1 (configuration not stated),-2%
COc1ccc(/C=C2\NC(=O)[C@@H]3Cc4ccccc4CN3C2=O)cc1,0%
CCCC(=O)c1c(NC)cc(C)oc1=O,2%
OCCNCCCCCOc1ccc(F)cc1,5%
Clc1ccc(-c2nnc(NCCN3CCCC3)c3ccccc23)cc1,-11%
Cc1ccc(NC(=O)CSc2nc(-c3cccs3)cc(C(F)(F)F)n2)cc1C,-4%
CCC1CCc2sc(C(=O)N(C)CC(=O)Nc3ccc(OC)cc3)cc2C1 (configuration not stated),-9%
CC(C)CN(C(=O)COC(=O)c1c2c(nc3ccccc13)CCC2)c1c(N)n(Cc2ccccc2)c(=O)[nH]c1=O,2%
COc1ccc(N2CCN(Cc3nc(Cc4cccc(F)c4)no3)C(C)C2)cc1 (configuration not stated),6%
c1ccc(Nc2nc(-c3ccc4c(c3)OCO4)nc3ccccc23)cc1,7%
